Screening results from PubChem BioAssay.
NPR1 antag = antagonists of human natriuretic peptide receptor Npr1 | HEK293 hNpr1 GloSensor cGMP, ANP-stimulated luminescence | Potency, µM (top dose mostly 46.3 µM), for inactives: at the highest dose activity change, negative = inhibition, usual class: inhibitors | 76,000 compounds, 1.6% hits; active = well fitted inhibition curve with a large enough effect; inconclusive = small, poorly fitted or top-dose-only effect; inactive = no such curve, though single readings can be large or run the other way;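 also: nearly all actives have a fitted effect of over 60% in size; nearly all hits also lower the signal before the agonist is added; a reference antagonist and vehicle were the controls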
Target sequence (P16066 whole entry, looked up): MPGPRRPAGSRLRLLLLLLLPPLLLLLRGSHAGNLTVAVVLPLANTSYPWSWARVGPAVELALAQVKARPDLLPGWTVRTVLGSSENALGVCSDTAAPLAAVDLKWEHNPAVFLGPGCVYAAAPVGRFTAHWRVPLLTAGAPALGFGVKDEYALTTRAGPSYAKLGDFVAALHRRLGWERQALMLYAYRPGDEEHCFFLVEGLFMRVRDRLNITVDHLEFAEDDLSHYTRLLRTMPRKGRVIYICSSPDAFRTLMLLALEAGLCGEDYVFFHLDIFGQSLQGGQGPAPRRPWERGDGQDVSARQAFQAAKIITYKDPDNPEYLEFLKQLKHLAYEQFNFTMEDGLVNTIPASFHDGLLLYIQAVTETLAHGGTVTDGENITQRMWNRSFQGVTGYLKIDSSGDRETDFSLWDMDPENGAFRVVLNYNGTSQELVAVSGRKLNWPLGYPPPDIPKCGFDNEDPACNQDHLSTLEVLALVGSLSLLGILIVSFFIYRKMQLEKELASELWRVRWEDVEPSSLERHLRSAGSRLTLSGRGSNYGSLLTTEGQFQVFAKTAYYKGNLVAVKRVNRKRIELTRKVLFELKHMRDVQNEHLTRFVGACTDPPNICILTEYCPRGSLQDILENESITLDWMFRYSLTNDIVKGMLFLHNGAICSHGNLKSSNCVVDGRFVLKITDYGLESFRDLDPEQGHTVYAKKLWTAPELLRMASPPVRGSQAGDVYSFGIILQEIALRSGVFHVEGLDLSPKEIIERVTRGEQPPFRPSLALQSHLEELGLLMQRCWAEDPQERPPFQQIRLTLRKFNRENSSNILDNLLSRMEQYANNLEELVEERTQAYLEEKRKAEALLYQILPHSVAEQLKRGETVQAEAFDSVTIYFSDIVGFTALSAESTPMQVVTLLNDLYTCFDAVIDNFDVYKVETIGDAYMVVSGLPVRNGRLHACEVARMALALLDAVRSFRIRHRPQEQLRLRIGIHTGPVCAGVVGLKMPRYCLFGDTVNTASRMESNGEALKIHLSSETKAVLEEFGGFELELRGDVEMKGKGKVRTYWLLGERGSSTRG
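Compound pre-incubated 30 min at room temperature on GloSensor-loaded HEK293 cells stably carrying hNpr1 and the pGS-40F cGMP biosensor. Stimulation uses hNppA at 0.1 nM final; luminescence is taken at baseline and 20 min post-agonist.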
An asterisk follows results filed as active; ? = inconclusive; & = joins results of further samples; [ ] = remark or other dose. % is scaled to controls: 0 for no effect and ±100 for the full control effect; potency is read from the fitted curve at half-maximal effect.

NPR1 antag | SMILES
11µM* | COc1cc(OC)cc(C(=O)N2CCCN(c3cc(-c4ccc(Br)cc4)[nH]n3)CC2)c1
2% | CCn1nccc1C(=O)N1CCC2(CC1)NCCc1c2[nH]c2ccc(OC)cc12
0% | COc1ccc(C(=O)N2CCCC(c3nn(-c4ccc(F)cc4)c(=O)[nH]3)C2)cc1 (stereo unspecified)
-13%[70.6 µM] | Fc1cccc(-c2cc(-c3cn[nH]c3)c3cncn3c2)c1
0%[70.6 µM] | CCCNC1(Cc2cc(CC(C)C)on2)COC1
-1% | COc1cccc(CN2CCN(Cc3ncccc3C)CC2)c1O
2% | COc1ccc(CC(=O)NC2CCN(c3cc(C)cc(C)c3)C2=O)c(Cl)c1 (stereo unspecified)
-3% | CS(=O)(=O)c1ccc(N2CCN(C(=O)[C@H]3CC[C@@H](N)C3)CC2)c(F)c1
9% | O=C(NC1CCCN(CCc2ccccc2)C1)c1ccccc1-c1ncn[nH]1 (stereo unspecified)
-1%[70.6 µM] | COc1ccccc1-c1cc(NCc2cnccn2)c2onc(C)c2n1
-1% | CS(=O)(=O)N1CCCN(C(=O)Cc2cccc(F)c2)CCNC(=O)CC1c1ccccc1 (stereo unspecified)
3% | Cc1cc(C[C@@H]2COC[C@@H]2NC(=O)CCc2nc(-c3ccccc3C)no2)on1

(list continues)
NPR1 antag | SMILES
3% | O=C(Nc1ccc2c(c1)OCCO2)C1CCN(C(=O)N2CC3CC(C2)[C@H]2CCCC(=O)N2C3)CC1 (stereo partly specified)
-17%[70.6 µM] | O=C(NCC1CN(Cc2ccccc2)CC12CN(c1ccccc1)C2)Nc1ccccc1 (stereo unspecified)
8% | Cc1cc(C)c(S(=O)(=O)N2CCc3nn(CC(C)C)c(=O)n3CC2)c(C)c1
15%[70.6 µM] | CC(C)CCN(C)C1CCOc2ccccc21 (stereo unspecified)
-17% | COc1ccc(S(=O)(=O)N2CCCC(Cn3c(C)nc4cccnc43)C2)cc1 (stereo unspecified)
0% | Cc1cc(C(=O)N[C@@H]2CN(c3ncccn3)C[C@H]2CO)c(C)o1
-27% | COCCOC1CCN(C(=O)NCc2ccc(F)cc2)CC1
1% | COc1ccc(NC(=O)c2ccc3c(c2)C2(CCCN(C)C2)CN3Cc2cccnc2)cc1 (stereo unspecified)
-1% | CC(CCc1ccccc1)NC(=O)c1noc(-c2ccc[nH]c2=O)n1 (stereo unspecified)
-6%[70.6 µM] | CC(C)CCN1CCCC2(CNc3ccccc3[S+](=O)([O-])N2)C1 (stereo unspecified)
-2%[70.6 µM] | COCCN[C@H]1[C@@H]2OC[C@@H](O2)[C@@H](NC(=O)Nc2cccc(C(F)(F)F)c2)[C@@H]1O
6% | CN(CCc1ccccn1)C(=O)CCc1ccc2c(c1)CN(S(C)(=O)=O)CCO2

Following part
NPR1 antag | SMILES
-28% | CCn1nccc1C(=O)N1CCC(c2noc(COc3ccc(F)cc3)n2)C1 (stereo unspecified)
8% | O=C(c1cccc(Cl)c1)N1CCn2c(nn(-c3ccc([N+](=O)[O-])cc3)c2=O)C1
0% | CS(=O)(=O)N1CCCN(Cc2ccc(F)cc2F)CCNC(=O)CC1c1ccccc1 (stereo unspecified)
7% | Cc1ccccc1N1CCCN(Cc2nc(-c3ccccn3)no2)CC1
1% | CNC1CCc2nnc(C)n2CC1 (stereo unspecified)
5% | O=C(O)c1ccccc1-n1nc(-c2ccncc2)nc1CN1CCCCC1=O
9% | COc1ccc(CCC(=O)N[C@@H]2CN(c3ncccn3)C[C@H]2CN(C)C)cc1
-6%[70.6 µM] | COc1ccc(S(=O)(=O)N[C@H]2C[C@@H](c3nc(Cc4ccccc4)no3)N(C)C2)cc1
6% | N#Cc1cccc(C(=O)N2CCOCCNC(=O)[C@@H]3CCC[C@@H]32)c1
-29% | O=c1[nH]c(C2CCCN(Cc3cccc(-c4cccnc4)c3)C2)nc2ccc(F)cc12 (stereo unspecified)
1%[70.6 µM] | COCCN1CCNc2cc(NCc3ccccc3)ncc2C1
1%[70.6 µM] | CC(C)NC(=O)N1Cc2[nH]cnc2C[C@H]1c1nc(-c2ccc3c(c2)OCO3)no1

A different layout for some results above.
molecule	NPR1 antag
COc1cc(OC)cc(C(=O)N2CCCN(c3cc(-c4ccc(Br)cc4)[nH]n3)CC2)c1	11µM*
CCn1nccc1C(=O)N1CCC2(CC1)NCCc1c2[nH]c2ccc(OC)cc12	2%
COc1ccc(C(=O)N2CCCC(c3nn(-c4ccc(F)cc4)c(=O)[nH]3)C2)cc1 (stereo unspecified)	0%
Fc1cccc(-c2cc(-c3cn[nH]c3)c3cncn3c2)c1	-13%[70.6 µM]
CCCNC1(Cc2cc(CC(C)C)on2)COC1	0%[70.6 µM]
COc1cccc(CN2CCN(Cc3ncccc3C)CC2)c1O	-1%
COc1ccc(CC(=O)NC2CCN(c3cc(C)cc(C)c3)C2=O)c(Cl)c1 (stereo unspecified)	2%
CS(=O)(=O)c1ccc(N2CCN(C(=O)[C@H]3CC[C@@H](N)C3)CC2)c(F)c1	-3%
O=C(NC1CCCN(CCc2ccccc2)C1)c1ccccc1-c1ncn[nH]1 (stereo unspecified)	9%
COc1ccccc1-c1cc(NCc2cnccn2)c2onc(C)c2n1	-1%[70.6 µM]
CS(=O)(=O)N1CCCN(C(=O)Cc2cccc(F)c2)CCNC(=O)CC1c1ccccc1 (stereo unspecified)	-1%
Cc1cc(C[C@@H]2COC[C@@H]2NC(=O)CCc2nc(-c3ccccc3C)no2)on1	3%
O=C(Nc1ccc2c(c1)OCCO2)C1CCN(C(=O)N2CC3CC(C2)[C@H]2CCCC(=O)N2C3)CC1 (stereo partly specified)	3%
O=C(NCC1CN(Cc2ccccc2)CC12CN(c1ccccc1)C2)Nc1ccccc1 (stereo unspecified)	-17%[70.6 µM]
Cc1cc(C)c(S(=O)(=O)N2CCc3nn(CC(C)C)c(=O)n3CC2)c(C)c1	8%

The list goes on.
NPR1 antag | SMILES
-3% | CCC1Oc2ccc(NC(=O)c3c(F)cccc3F)cc2CN(Cc2ccc(F)cc2Cl)C1=O (stereo unspecified)
3% | CNC(=O)[C@@H]1C[C@H](Oc2ccccc2)CN1C(=O)c1ccc2ccccc2n1
-5%[70.6 µM] | O=C1C2CN(Cc3ccc4[nH]ccc4c3)CCC2OCCN1Cc1ccccc1F (stereo unspecified)
-5% | C=CCN(CC=C)Cc1nnc2cc(-c3nc(-c4ccccc4)no3)ccn12
4% | COc1ccc(C2Cn3nnc(C(=O)N4CCC(C(=O)NC5CCCCCCC5)CC4)c3CO2)cc1 (stereo unspecified)
-6% | Cc1ccc(CN2C(=O)NC3(CCN(C(=O)c4ccc(C#N)cc4)CC3)C2=O)cc1
5% | CCCNC(=O)N(C1CCOCC1)C1CCN(C(=O)c2ccc(OC)nc2)CC1
? | O=C(C1CCC1)N1CCCC(n2cc(-c3nc(-c4ccccc4)no3)nn2)C1 (stereo unspecified)
-18% | O=C(NC1CCN(c2cc(-c3cccs3)[nH]n2)CC1)c1ccc(F)c(F)c1
-16% | COc1ccc(-c2nc3c(c(-c4ccccc4)n2)CN(C(=O)c2ccc(F)cc2)CC3)cc1
2%[70.6 µM] | Cc1cc(Cn2cc3c4c(cccc42)[C@H](CC(C)C)N[C@H](C(=O)O)C3)no1
-4% | CC(C)N(C)Cc1nnnn1CC(=O)N1CCCC(OCc2ccccn2)C1 (stereo unspecified)

More compounds.
NPR1 antag | SMILES
-18% | FC1(c2nc(-c3ccccc3)no2)CCN(C2CCOCC2)CC1
13% | CCC(=O)N1CCC(Oc2ccc(C(N)=O)cn2)C1 (stereo unspecified)
-14% | CCCc1noc(-c2cn(C3CCN(C(=O)c4sccc4C)CC3)nn2)n1
19% | O=C(c1nc(-c2cccc(C(F)(F)F)c2)c2cnccn12)N1CCN(c2ncccn2)CC1
0% | COc1cccc(CNC(=O)C2Cn3cccc3C(=O)N2)c1 (stereo unspecified)
? | O=C(c1cnc2n1CCN(CCc1ccccc1)CC2)N1CCC(c2ccccc2)CC1
2% | O=C(NCc1ccc(F)cc1)C1(CCO)CCN(c2ncccn2)C1 (stereo unspecified)
4% | Cc1nonc1CC(=O)NC1CC(=O)N(Cc2cccc3ccccc23)C1 (stereo unspecified)
-3% | O=C(NCc1ccccn1)C1c2ccccc2C(=O)N(c2ccccc2)C12CCCCC2 (stereo unspecified)
? | Cc1ccc(NC(=O)N2CCCC(c3noc(COc4ccccc4F)n3)C2)c(C)c1 (stereo unspecified)
-5%[70.6 µM] | CC(=O)Nc1cccc(-c2ccnc(-c3nnc(C)n3C(C)C)c2)c1
-1% | CCc1cc(N2CCN(C)C(C(=O)O)C2)nc(N2CCOCC2)n1 (stereo unspecified)

Looked up above:
COc1cccc(CNC(=O)C2Cn3cccc3C(=O)N2)c1 (stereo unspecified) – NPR1 antag = 0%
COc1ccc(C(=O)N2CCCC(c3nn(-c4ccc(F)cc4)c(=O)[nH]3)C2)cc1 (stereo unspecified) – NPR1 antag = 0%

(more compounds)
NPR1 antag | SMILES
-2% | O=C1NC(C(=O)N2CCCCC2)Cn2cccc21 (stereo unspecified)
-10% | COCCN1C(=O)c2ccccc2C(C(=O)Nc2nc3c(s2)CCC3)C12CCCCC2 (stereo unspecified)
? | O[C@H]1CC[C@@H](Cc2cc(-c3ccc(F)cc3)on2)O[C@@H]1CNCc1ccccn1
2% | CCOCCCNC(=O)N1CCC(N2CC3CC(C2)[C@H]2CCCC(=O)N2C3)CC1 (stereo partly specified)
-2%[70.6 µM] | CC(=O)Nc1cccc(-c2ccc3ncn(-c4ccc(F)cc4F)c(=O)c3n2)c1
3% | CC(C)CC(=O)NCCC1CCN(C(=O)Nc2cc(F)cc(F)c2)CC1
-2% | O=C([C@@H]1C[C@@H]2C=C[C@H]1C2)N1CCc2c(nc(-c3cccnc3)[nH]c2=O)C1
-9%&-3% | O=C1NCCCN1C1CCN([S+](=O)([O-])c2cccc(C(F)(F)F)c2)CC1
-2% | CC(C)CN1C(=O)c2cccn2CC1CNC(=O)C1(c2ccccc2)CC1 (stereo unspecified)
-5% | O=C(NC1CCCCC1)C1CCc2sc(C(=O)N3CCCCC3)cc2C1 (stereo unspecified)
-16%[70.6 µM] | Cc1cc(F)ccc1-c1[nH]nc2ncc(-c3cn[nH]c3)nc12
-14%[70.6 µM] | NC(=O)c1cccc(-c2cc(-c3cccnc3)c3cncn3c2)c1

Next entries.
NPR1 antag | SMILES
2%[70.6 µM] | COc1ccc(Nc2cnc3ccc(-c4ccc(OC)nc4)nn23)cn1
-11%[70.6 µM] | CN1C[C@@H](NC(=O)Nc2cccc(C#N)c2)C[C@H]1c1nc(-c2ccncc2)no1
? | Cc1ccccc1CN1Cc2nc(NCc3cccc(F)c3)ccc2OCC1=O
-1% | O=C(NCCC(=O)N1CCn2nc(C(=O)O)cc2C1)c1ccc(F)cc1
-2% | O=C(CCc1cc2ccccc2[nH]c1=O)NCCN1CCc2ccccc2C1
1% | COc1ccc(OC)c(S(=O)(=O)N2CCCC2c2nncn2Cc2ccncc2)c1 (stereo unspecified)
0% | CC(=O)N1CC2(Cc3ccccc31)CN(C(=O)c1cccc(Cl)c1)C2
2% | O=C(c1csc2nc(-c3cccc(C(F)(F)F)c3)cn12)N1CCN2CCCC2C1 (stereo unspecified)
-11% | COCC1CN(C(C)=O)CC12CCN(S(=O)(=O)c1ccc(F)c(C)c1)CC2 (stereo unspecified)
? | Cc1nn(Cc2ccccc2)c(C)c1[C@@H]1C=C[C@@H](NC(=O)c2ccc(F)c(Cl)c2)C1
4% | CCN(C1CCOCC1)C1CN(C(=O)c2ccncc2)C1
-2% | O=C1CC2(CCN(C(=O)C3CCc4ccccc43)CC2)CN1Cc1ccccc1 (stereo unspecified)

More results
NPR1 antag | SMILES
3%[70.6 µM] | COc1ccc(-c2[nH]nc3ncc(-c4cn[nH]c4)nc23)cc1F
0% | Cc1cc(S(=O)(=O)N2CCc3nn(C)c(=O)n3CC2)ccc1Cl
-18% | CCc1nc2c(=O)n(CC(=O)N3CCN(c4cc(C)ccc4C)CC3)nc(C)c2s1
5% | CC(C)CCN1C(=O)CC[C@]2(C(=O)N3CCN(CC(C)C)CC3)CCCC[C@@H]12
3% | O=C(c1nccc2ccccc12)N1CCN(C(=O)N2CC3CC(C2)[C@H]2CCCC(=O)N2C3)CC1 (stereo partly specified)
6% | CCN1C(=O)CCN(C(=O)Cc2cccc(F)c2)CC12CCOCC2
2% | O[C@]12CCNC[C@H]1CN(Cc1cccc(N3CCOCC3)c1)CC2
-1% | Cc1ccncc1C(=O)N1CCn2c(nnc2[C@@H]2C[C@@H](O)CN2Cc2ccccc2)C1
-3%[70.6 µM] | O=C1CO[C@H]2CN(Cc3ccncc3)C[C@H]2N1Cc1ccc(F)cc1
2% | O=C(N[C@@H]1C[C@H](Cn2cc(-c3cccnc3)nn2)[C@@H](O)[C@H]1O)C1CCCC1
1% | CCn1ccc(C(=O)N2CCCC3(C2)Nc2cccnc2NC3=NCc2ccccc2)n1 (stereo unspecified)
-4% | CCn1ccnc1CN(C)Cc1cccc(OCC(O)CN(C)C2CCCCC2)c1 (stereo unspecified)

(listing goes on)
NPR1 antag | SMILES
-13% | COc1ccc(-c2nc(C3CC(=O)N(c4ccc(OC)c(OC)c4)C3)no2)c(C)c1 (stereo unspecified)
? | CNC(=O)CCn1ncc2cc(OCc3ccccc3-c3ccc(F)c(Cl)c3)ccc21
2% | Cc1ccc(C2Cn3nnc(C(=O)N4CCC(C(=O)NCc5ccccc5F)CC4)c3CO2)cc1 (stereo unspecified)
-1% | COCc1nc(C2CC(N)C2)cc(N(C)CCN2CCCCC2=O)n1 (stereo unspecified)
14% | Cc1nc(C2CC(O)C2)cc(N(C)Cc2ccc3c(c2)OCO3)n1 (stereo unspecified)
-1% | COc1ccccc1C(=O)NCC1Cn2cccc2C(=O)N1CC(C)C (stereo unspecified)
4% | O=C(c1cc2ccccc2[nH]1)N1CCC(N2C(=O)C(O)C23CCCCC3)CC1 (stereo unspecified)
-14% | O=C(CN1C(=O)C(c2ccccc2)=NC12CCCC2)Nc1cccc(C(F)(F)F)c1

These rows are one share of the data; rates above refer to the full screens.
